# Cruzain Triton: qHTS Assay for Promiscuous and Specific Inhibitors of Cruzain (with detergent); purified cruzain, Z-FR-AMC fluorescence, 0.01% Triton; Potency, µM, for the others: max response, negative = inhibition, hits mostly inhibitors; 0.43% of 200,000 active;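 note: plate controls were neutral wells for no effect and buffer without enzyme for full effect; nearly all actives have a fitted effect of over 40% in size; top concentration of the series not given in the record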
# Target sequence (P25779 123-467 limits assumed): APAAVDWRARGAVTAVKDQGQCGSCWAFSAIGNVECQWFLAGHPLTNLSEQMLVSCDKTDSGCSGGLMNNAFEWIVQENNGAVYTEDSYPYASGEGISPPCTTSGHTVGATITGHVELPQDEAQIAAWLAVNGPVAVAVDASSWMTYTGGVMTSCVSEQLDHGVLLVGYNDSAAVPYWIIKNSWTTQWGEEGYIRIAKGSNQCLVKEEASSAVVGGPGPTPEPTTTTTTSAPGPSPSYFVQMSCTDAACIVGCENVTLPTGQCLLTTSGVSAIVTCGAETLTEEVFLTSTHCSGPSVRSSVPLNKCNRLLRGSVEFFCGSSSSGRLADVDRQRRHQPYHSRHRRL
#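 Cruzain (1.5 nM) preincubated 15 min at RT with compound in 100 mM sodium acetate pH 5.5, 5 mM DTT, 0.01% Triton X-100. Reaction started with 2 uM Z-FR-AMC; AMC fluorescence (ex 360/em 450 nm) change over 60 s gave rate.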
# MARV entry inh: qHTS for inhibitors of binding or entry into cells for Marburg Virus | AID 540276, 2011 | 1.8% of 300,000 active | Potency, µM (titrated, usually from 37.8 µM), without a hit: at the highest dose activity change, negative = inhibition, most hits filed as inhibitors | Marburg virus pseudotyped entry inhibition, cell reporter; control for the full effect not named in the record; about a third of the inactives were read at about 46 µM; active = well fitted inhibition curve with a large enough effect; inconclusive = small, poorly fitted or top-dose-only effect, or effect the other way; inactive = flat fitted curve, though single readings scatter; tested in HEK293 cells; about a fifth of its hits are not listed in these tables; note: % is set by controls: 0 for no effect and ±100 for the full control effect; luciferase read-out
# SARS PLP yeast: qHTS of Yeast-based Assay for SARS-CoV PLP | Potency, µM (highest dose often 32.9 µM), for inactives: at the top dose activity, positive = growth rescue | S. cerevisiae expressing SARS-CoV PLpro, growth rescue; control for the full effect not named in the record | 0.19% of 330,000 active; active means well fitted rising curve with a large enough effect; inconclusive means small, poorly fitted or top-dose-only effect; inactive means no such curve, though single readings can be large or run the other way; note: 0% is about no effect; nearly all actives have a fitted effect of over 55% in size; growth read by luminescence after 48 h
# RE007 growth inh: qHTS Assay for Inhibitors of the HIV-1 protein Vpr; S. pombe RE007 Vpr strain, BacTiter-Glo ATP luminescence, 24 h; control for the full effect not named in the record; Potency, µM (highest dose often 92.2 µM), inactives show at the top dose activity change, negative = less growth; 0.21% of 360,000 active; active = well fitted falling curve with a large enough effect; inconclusive = small, poorly fitted or top-dose-only effect; inactive = no such curve, though single readings can be large or run the other way;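 note: % is set by controls: 0 for no effect and ±100 for the full control effect; nearly all actives have a fitted effect of over 50% in size; the assay follows cell death caused by Vpr and the record does not say whether a fall means rescue or toxicity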
#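 Fission yeast strain RE007, carrying one chromosomally integrated HIV-1 vpr copy, was seeded at OD 0.01 in PMG+AL medium with 23 nL pinned compound. After 24 h at 30 °C and 99% humidity, viability was read by BacTiter-Glo luminescence.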
# LASV entry inh: qHTS for Inhibitors of binding or entry into cells for Lassa Virus. Lassa virus pseudotype entry inhibition, cell reporter; control for the full effect not named in the record. Potency, µM (doses to about 37.9 µM), for inactives: top-dose activity change, negative = inhibition, hits mostly inhibitors. 1.2% of 300,000 active; active means well fitted inhibition curve with a large enough effect; inconclusive means small, poorly fitted or top-dose-only effect, or effect the other way; inactive means flat fitted curve, though single readings scatter; tested in HEK293 cells; note: % is set by controls: 0 for no effect and ±100 for the full control effect; nearly all actives have a fitted effect of over 50% in size; luciferase read-out
# NS1 inh: qHTS Assay for Inhibitors of Influenza NS1 Protein Function. S. cerevisiae slowed by influenza A NS1, growth recovery by OD600. Potency, µM (titrated, usually from 46.1 µM), inactives show top-dose activity, positive = more growth. 0.4% of 270,000 active; active means well fitted rising curve with a large enough effect; inconclusive means small, poorly fitted or top-dose-only effect; inactive means no such curve, though single readings can be large or run the other way; note: nearly all actives have a fitted effect of over 50% in size
#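 A cell-based growth assay was used: compounds that relieve NS1-induced slow growth of budding yeast raise OD600. Assay medium was yeast nitrogen base with ammonium sulphate and -URA supplement, pH 6.0, with 2% galactose.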
# Cruzain inh noDet: qHTS Assay for Promiscuous and Specific Inhibitors of Cruzain (without detergent); Cruzipain (Trypanosoma cruzi), P25779; purified cruzain, Z-FR-AMC fluorescence, no detergent; Potency, µM, for inactives: max response, negative = inhibition, most hits filed as inhibitors; 2.3% of 200,000 active;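 note: plate controls were enzyme without inhibitor for no effect and buffer without enzyme for full effect; nearly all actives have a fitted effect of over 40% in size; top concentration of the series not given in the record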
#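 Purified cruzain at 1.5 nM, pre-incubated 15 min with compound at room temperature in 100 mM sodium acetate pH 5.5, 5 mM DTT, 0.00005% Triton X-100. Reaction started with 2 uM Z-FR-AMC; AMC fluorescence increase over 60 s gives rate.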
# 2A StopGo: High Throughput Screening for Foot and Mouth Disease Virus Antivirals | human cells with a luciferase reporter of 2A StopGo recoding; control for the full effect not named in the record | Potency, µM (top dose mostly 57.9 µM), for inactives: at the highest dose signal change, negative = less light | 1.2% of 410,000 active | AID 1159524, 2015; active = well fitted falling curve with a large enough effect; inconclusive = small, poorly fitted or top-dose-only effect; inactive = no such curve, though single readings can be large or run the other way; tested in HEK293T cells; note: % is set by controls: 0 for no effect and ±100 for the full control effect; nearly all actives have a fitted effect of over 45% in size; luciferase light after 4 h
# The depositor's hits bear a star; ? = inconclusive; . = no result given; & = joins results of further samples; [ ] = dose if it differs, or a comment. Unless noted, calls come from the whole dose curve; as a rule, active = well fitted curve in the direction sought with a large enough effect; inconclusive = small, poorly fitted or top-dose-only effect, or another doubt; inactive = no such curve, though single readings can be large; an effect the other way counts as inactive or inconclusive. Potency is the fitted concentration of half-maximal effect.
SMILES,Cruzain Triton,MARV entry inh,SARS PLP yeast,RE007 growth inh,LASV entry inh,NS1 inh,Cruzain inh noDet,2A StopGo
Cc1cc(Cl)ccc1N1C(=O)CC(NNC(=O)c2cccnc2)C1=O (stereo not given),-3.4%,26%,-1%,16%,-3%,26%,13%,0%
OCC1(Cc2ccc(Cl)cc2)CCN(CC2CC=CCC2)CC1 (stereo not given),.,?,0%,4%,-13%[46.1 µM],-2%,.,-19%
O=C(Nc1cccc([N+](=O)[O-])c1)c1cc2ccccc2cc1O,.,.,-6%,-14%,.,-22%,.,-15%
CN1CCc2nc(SC(C(=O)O)c3ccccc3)c(C#N)c(-c3cccs3)c2C1 (stereo not given),.,?,1%,-1%,16%[46.1 µM],6%,.,-12%
Cc1ccc(C)c(N2CCN(CCCNC(=O)Nc3cc(Cl)ccc3C)CC2)c1,-0.6%,.,.,.,9%[46.1 µM],.,-1%,?
O=C(N/N=C/c1cccc([N+](=O)[O-])c1)c1ccncc1,.,11%[46.1 µM],7%,-13%,11%[46.1 µM],9%,.,1%
COc1cccc(C2=NOC(C(=O)N3CCN(c4ccccc4)CC3)C2)c1OC (stereo not given),-9.0%,.,1%,-6%,.,-7%,-4%,-15%
CCn1nc(C(=O)NNS(=O)(=O)c2ccc(C)cc2)c2ccccc2c1=O,.,?,12%,0%,14%[46.1 µM],.,.,-21%
Cc1cccnc1NC(=O)CNC(=O)C12CC3CC(CC(C3)C1)C2,.,5%,0%,2%,11%,.,.,-6%
COc1ccc(CC(=O)Nc2cccc(/C(C)=N/NC(=O)C3(C)CC3(Br)Br)c2)cc1 (stereo not given),.,.,-7%,7%,.,-12%,.,-21%
COc1ccc(CCNC(=O)c2cnn3cccnc23)cc1OC,0.9%,12%,9%,-5%,1%,-2%,-2%,14%
CCOC(=O)c1ccc(N(CC(=O)NC2CCCC2)C(=O)CNC(=O)c2ccco2)cc1,3.0%,1%,-2%,-9%,7%,-18%,-16%,-9%
CC(C)CC1(C(=O)O)NC(c2ccccc2O)C2C(=O)N(C(C)C)C(=O)C21 (stereo not given),-0.1%,1%,7%,-5%,.,?,2%,-2%
COC(=O)c1cccc(NC(=O)CSc2nc3cccnc3n2C)c1,-3.3%,?,5%,4%,-27%,-58%,-7%,16µM*
COc1ccc(-c2cc3c(=O)n(CC(=O)Nc4cccc(Cl)c4)nc(C)n3n2)cc1,.,.,2%,-6%,.,-18%,.,?
CCCC(=O)Nc1ccc(C(=O)NCCCn2ccnc2)cc1,2.9%,0%,?,4%,17%,6%,1%,21%
COc1ccc2c(c1)CCc1c(C(=O)Nc3ccccc3C(F)(F)F)noc1-2,-0.3%,?,.,.,8%[46.1 µM],.,9%,25%
CCOc1cc(NC(=S)NCc2ccco2)c(OCC)cc1NC(=O)CC,-4.7%,14%,18%,-8%,-2%,7%,-4%,6%
COc1ccc(C(=O)Nc2c(O)ccc3ccccc23)cc1,.,?,.,-22%,21%,.,.,38%[activator]
c1ccc2c(SCc3cn4ccccc4n3)nncc2c1,.,1%,-2%,-19%,6%,.,.,59%[activator]
CC(C)C(=O)Nc1nnc(CSCc2ccccc2F)s1,7.0%,28%,-3%,5%,9%,-9%,-10%,10%
Clc1cccc(OCCN2CCOCC2)c1,7.6%,?,5%,1%,3%,-6%,-6%,31%[activator]
Cc1cccc(-n2c(SCC(N)=O)nc3c(c2=O)C2(CCCC2)Cc2ccccc2-3)c1,-3.4%,?,4%,16%,-8%,11%,6%,?
O=C(CS(=O)(=O)c1c[nH]c2ccccc12)Nc1ccc2c(c1)OCCO2,3.8%,11%,0%,-3%,0%,5%,2%,60%[activator]
CC1=C(C#N)c2nc(N)c(C#N)c(C)c2/C1=C\c1ccc(C)cc1,-19%,1%,4%,.,.,13µM*,-18%,.
# (cont.)
SMILES,Cruzain Triton,MARV entry inh,SARS PLP yeast,RE007 growth inh,LASV entry inh,NS1 inh,Cruzain inh noDet,2A StopGo
Cc1c(CNCCCc2ccccc2)c(C(=O)O)c(C)n1Cc1ccccc1,.,?,2%,8%,4%[46.1 µM],.,.,-2%
Cc1ccc(CN(C(=O)c2ccc(C(C)(C)C)cc2)c2ccccn2)o1,-7.2%,?,.,.,27%[46.1 µM],.,-13%,28%
O=C(c1cc2nc(-c3ccc(F)cc3)cc(C(F)(F)F)n2n1)N1CCOCC1,-3.2%,22%,-1%,6%,12%,?,11%,-12%
O=C(CN1CCCc2ccccc21)N/N=C/c1c(O)ccc2ccccc12,-5.7%,?,10µM*,5%,?,12%,?,?
C=CCN(C(=O)CCC(=O)Nc1cc(C)on1)C(C(=O)NC1CCCC1)c1ccc(OC)c(OC)c1 (stereo not given),.,-1%[46.1 µM],1%,-21%,-1%,6%,.,-4%
COc1ccccc1CCNC(=O)CN1C(=O)NC2(CCCC2)C1=O,.,-4%,10%,6%,18%,.,.,-2%
CCCCn1c(CCNC(=O)CCC)nc2ccccc21,-4.8%,.,3%,-1%,.,-2%,-26%,-9%
O=C(/C=N/NC(=O)c1ccc(Cl)cc1Cl)c1ccccc1,.,-10%[46.1 µM],-1%,-1%,25%[46.1 µM],-38%,.,-18%
O=C(O)C(Br)CBr (stereo not given),3.9%,.,-1%,1%,.,.,-5%,-3%
O=C(/C=C/c1ccccc1Cl)N1CCOCC1,.,.,-3%,-17%,.,-1%,.,21%
c1csc(-c2ccn[nH]2)c1,.,.,-2%,18%,.,6%,.,21%
O=C(NCC(c1ccco1)N1CCc2ccccc2C1)c1ccccc1Br (stereo not given),.,-3%[46.1 µM],2%,10%,-12%,.,.,-16%
O=C(COc1ccccc1)Nc1ccc(OC(F)(F)C(F)F)c(NC(=O)COc2ccccc2)c1,1.9%,?,16%,5%[3.69 µM],?,0%,-4%,-8%
FC(F)(F)c1cc(C(F)(F)F)c2ccc(Oc3ccccc3)nc2n1,-1.6%,8%,10%,-11%,14%,-4%,0%,-14%
CC1=CCCC(C)(C)C1/C=C/C(C)=N/NC(=O)c1ccncc1 (stereo not given),.,24%[46.1 µM],1%,20%,-16%,.,.,-21%
O=C(Nc1nnc(SCc2ccccc2)s1)C1=COCCO1,.,?,8%,4%,-20%,.,.,10%
Cc1cc(C)c(/C=N/NC(N)=O)c(C)c1/C=N/NC(N)=O,-0.8%,?,2%,12%,-1%,12%,-11%,7%
Cc1cc(C)c2[nH]c(=O)c(=O)[nH]c2c1,3.0%,3%,9%,0%,-3%,5%,-15%,-5%
COc1ccc(NS(=O)(=O)c2cc(NC(=O)CNC(=O)c3ccc(C)s3)ccc2Cl)cc1,-1.7%,?,0%,-7%,?,?,?,70%[activator]
CC1CCN(C(=O)c2ccc3c(c2)N(Cc2ccccc2F)C(=O)c2ccccc2S3(=O)=O)CC1,-3.5%,-9%[46.1 µM],.,.,-25%[46.1 µM],.,14%,17%
CN(CC(=O)NCCc1ccc(S(N)(=O)=O)cc1)CC(=O)Nc1cccc(F)c1,.,29%,4%,-10%,13%,.,.,-29%
OCC1(Cc2ccccc2F)CCCN(CC2CCCCC2)C1 (stereo not given),.,?,-1%,-17%,?,2%,.,10%
Cc1ccc(S(=O)(=O)N/N=C/c2cccc(OC3CSC3)c2)cc1,-8.9%,-28%,-28%,15%,-26%,-28%,-1%,51%[activator]
CC(CNC(=O)c1ccc2nc(CCc3ccccc3)oc2c1)c1ccccc1 (stereo not given),-0.6%,.,.,.,-28%[46.1 µM],.,-9%,-4%
COc1ccccc1C(=O)NC(=O)COC(=O)CCOc1ccc(C)cc1,.,?,2%,-1%,-8%,.,.,-18%
# Additional entries follow.
SMILES,Cruzain Triton,MARV entry inh,SARS PLP yeast,RE007 growth inh,LASV entry inh,NS1 inh,Cruzain inh noDet,2A StopGo
CCc1ccc(CNC(=O)CCn2nc(C)c3c(C)n(-c4ccccc4)nc3c2=O)cc1,-16%,.,17%,-8%,-1%[46.1 µM],3%,-5%,-11%&-2%
CCOc1ccc(/C=N/NC(=O)CC(=O)Nc2ccc(Cl)c(Cl)c2)cc1,-1.0%,?,-9%,-11%,?,2%,?,-29%
CCC1=C2CC[C@H]3C(=O)N(c4ccccc4)C(=O)[C@H]3[C@H]2[C@@]2(C)C(=NCC3CC3)OC(=O)N2C1=O,2.3%,.,0%,8%,.,0%,-1%,-16%
CC(=O)Nc1ccc(S(=O)(=O)N(Cc2ccco2)CC2CCCO2)cc1 (stereo not given),1.6%,23%,4%,30%,1%,2%,-3%,-3%
CC(=O)Nc1ccc(S(=O)(=O)Nc2nc3c(s2)CCCC3)cc1,-0.3%,-1%,3%,-8%,0%,4%,-11%,116%[activator]
CCOC(=O)c1nn(-c2ccc(F)cc2)c(=O)cc1OCC(=O)Nc1ccc(F)c(F)c1,.,0%[46.1 µM],-5%,-13%,4%,.,.,12%
COc1ccc2c3c(cccc13)OC2=O,.,-24%[46.1 µM],-1%,3%,-13%[46.1 µM],-61%,.,2%
Nc1ccc(-c2cnc3ccccc3n2)cc1,.,?,.,-5%,?,.,.,13%
COc1cc(/C=C/C2=NC(=O)C(C)(C)O2)ccc1O,-2.9%,9%,5%,-4%,14%,4%,-12%,.
CC(=O)c1cn(C(=O)c2ccc(Cl)cc2)c2ccccc12,.,9%[46.1 µM],-1%,-4%,11%[46.1 µM],-5%,.,-20%
CC(C)CNC(=O)c1c(N)n(Cc2ccco2)c2nc3ccccc3nc12,-13%,?,-9%,-22%,-8%,12%,?,0%
COC(=O)N/N=C/c1cccs1,.,.,0%,-8%,.,-2%,.,3%
Cn1c(SCC(=O)N2CCCC2)nc2ccccc2c1=O,3.5%,3%,5%,6%,-2%,-45%,-4%,-4%
O=C(Nc1cccc(S(=O)(=O)N2CCOCC2)c1)c1ccccn1,.,.,-1%,1%,.,-40%,.,11%
Cc1nonc1C(=O)N/N=C/c1cccc(O)c1,-5.5%,7%,-15%,-23%,7%,-12%,-1%,-4%
